Rce1 inhib = blocks yeast Ras-converting enzyme; Q03530; yeast membranes, quenched prenylated peptide cleavage fluorescence; calls only; actives 0.27% (n = 290,000);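 active = fall in fluorescence gain of 50% or more versus controls, with final raw signal at or below 3038400; inconclusive = same 50% fall but final raw signal above 3038400; inactive = fall in fluorescence gain under 50%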;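 also: plate controls were neutral control wells for no effect and wells lacking membranes for full effect; tested at 10 µM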
Yeast UUG start = modulators of start codon recognition fidelity in yeast; S. cerevisiae UUG-firefly luciferase reporter, luminescence/redox ratio; actives 0.13% (n = 350,000); activity score, % at 18.7 µM; AID 602363;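 active = replicate mean at a twofold rise or more, about +100% in these data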;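 also: firefly luciferase made from a UUG start codon reports start codon fidelity; reporter light over untreated wells divided by growth signal over untreated wells; some hits fall short of that in this replicate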
eIF4H inh = inhibitors of RNA binding by human eIF4H. Q15056. eIF4H fluorescence polarization binding assay. inhibition, % at 35 µM. actives 0.94% (n = 290,000). AID 2012;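 active = 50% or more with normal probe brightness, or confirmed in later tests; inconclusive = above 50% with abnormal brightness, or retests that disagree; inactive = below 50% or failed in later tests; about a fifth of its hits are not listed in these tables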;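 also: calls also rest on retests at 20 µM and on dose response follow-up; 0% = protein and probe with vehicle and 100% = probe without protein; strong numbers were not always called active; many hits fall short of the cut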
PABP FP inh = blocks human PABP binding to poly(A) RNA | P11940 | fluorescence polarization | inhibition, % at 35 µM | actives 1% (n = 290,000);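 active = 50% or more with normal probe brightness, or confirmed in later tests; inconclusive = above 50% with abnormal brightness, or retests that disagree; inactive = below 50% or failed in later tests; about a fifth of its hits are not listed in these tables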;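 also: calls also rest on retests at 20 µM and on dose response follow-up; controls were probe without protein and protein plus probe with vehicle; some compounds called inactive have numbers as strong as hits; many hits fall short of the cut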
Target sequence (P11940 whole entry, looked up): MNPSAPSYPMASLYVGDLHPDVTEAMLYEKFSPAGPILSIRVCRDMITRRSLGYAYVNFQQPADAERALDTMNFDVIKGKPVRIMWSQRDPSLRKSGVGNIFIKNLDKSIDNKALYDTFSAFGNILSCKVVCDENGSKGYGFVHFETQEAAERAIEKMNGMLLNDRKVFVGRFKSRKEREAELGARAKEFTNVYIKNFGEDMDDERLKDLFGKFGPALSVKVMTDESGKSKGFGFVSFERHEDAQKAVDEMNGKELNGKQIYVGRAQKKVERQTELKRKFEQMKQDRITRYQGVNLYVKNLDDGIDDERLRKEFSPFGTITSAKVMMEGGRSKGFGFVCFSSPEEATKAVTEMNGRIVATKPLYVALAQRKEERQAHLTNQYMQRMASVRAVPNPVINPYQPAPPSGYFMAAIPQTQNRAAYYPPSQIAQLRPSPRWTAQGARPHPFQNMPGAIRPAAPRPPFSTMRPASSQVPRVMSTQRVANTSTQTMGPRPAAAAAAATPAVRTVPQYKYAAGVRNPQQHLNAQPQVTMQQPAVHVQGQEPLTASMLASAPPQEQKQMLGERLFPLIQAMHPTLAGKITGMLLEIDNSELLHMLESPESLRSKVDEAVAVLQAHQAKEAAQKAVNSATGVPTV
Env fusion inh = blocks HIV Env-driven cell-cell fusion. HeLa-JRFL Env/CEM21 cell fusion, luciferase. actives 1.1% (n = 360,000). inhibition, % at 12.3 µM;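 active = mean replicate inhibition score of at least 50 and every replicate individually at or above 50; inconclusive = only one of the two criteria met; inactive = mean below 50 and not all replicates reaching 50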;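 also: 0% = plate neutral controls and 100% = maraviroc near 300 nM; one replicate is shown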
MT1-MMP act inh = blocks activation of human MT1-MMP; actives 0.061% (n = 360,000); GFP/RFP ratio change, % at 20 µM; P50281; HT1080 RFP-PRO-GFP cells, GFP/RFP ratio fluorescence, overnight; percent of plate control window, DMSO zero; AID 651647;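 active = GFP/RFP ratio change of at least 30% with cell ATP level not reduced by more than half and red fluorescence within 50% of control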; also: strong numbers were not always called active
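Assay system: HT1080 RFP-PRO-GFP cells. Benchmarks: DMSO vehicle wells and RFP-L50D-GFP reporter cell wells. Times: overnight cell settling, then overnight compound exposure, 37 °C, 5% CO2. Compound: 20 µM single dose, 1% DMSO. Read-out basis: GFP/RFP fluorescence ratio.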
CSC inhib = cancer stem cell inhibition; AID 2717; cancer stem cell-like cells viability, luminescence; inhibition, % at 7.5 µM; actives 1.1% (n = 300,000);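 active = mean at 75% or more and at least half the replicates too; inconclusive = mean and replicates disagree; tested in HMLE shEcad cells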;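 also: 0% = median of negative and 100% = median of positive control wells; the first replicate is given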
MT1-MMP act inh RFP = further read-out of MT1-MMP act inh, marked with its call; RFP signal change, %; measured here: RFP expression control read;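 0 = vehicle wells; hits needed this value within 50% of zero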
Active calls of the source: *.

What do the screens show for `CC(=O)Nc1ccc(NC(=O)CSc2ncc(C(=O)Nc3ccc(F)cc3)c(=O)n2C)cc1`?
Rce1 inhib: inactive; Yeast UUG start: -18.9; Env fusion inh: -70.7; MT1-MMP act inh: 1.1; CSC inhib: 30.5; MT1-MMP act inh RFP: -1.7

What do the screens show for `C/C(=N\Nc1ccc(Cl)c(C(=O)O)c1)c1ccc(Br)s1`?
Rce1 inhib: inactive; Yeast UUG start: 16.2; eIF4H inh: 10.8; PABP FP inh: 15.7; Env fusion inh: -18.5; MT1-MMP act inh: 1.6; CSC inhib: 2.4; MT1-MMP act inh RFP: 1.9

How did C[C@@H](NC(=O)[C@@H]1Cc2ccccc2CN1C(=O)OC(C)(C)C)C(=O)NC1CCCCC1 do in these assays?
Rce1 inhib: inactive; eIF4H inh: -5.8; PABP FP inh: -2.2; Env fusion inh: 2.8; MT1-MMP act inh: -0.7; CSC inhib: 23.6; MT1-MMP act inh RFP: 1.9

What do the screens show for `O=C1NC(=O)C(Cc2ccc(Cl)cc2)(c2ccccc2)N1` (stereo not given)?
Yeast UUG start: -2.9; Env fusion inh: -29.5; MT1-MMP act inh: 3.5; MT1-MMP act inh RFP: 1.6

What do the screens show for `CCOc1ccc(/C=C/C(=O)c2ccc(-c3ccccc3)cc2)cc1`?
Rce1 inhib: inconclusive; eIF4H inh: 7.5; PABP FP inh: 7.7; Env fusion inh: -14.5; MT1-MMP act inh: 1.4; MT1-MMP act inh RFP: 1.9

Results for CC1(Cc2ccc(Cl)cc2)C(=O)Nc2c(Cl)ccc(Cl)c21 (stereo not given) ?
Yeast UUG start: -7.6; Env fusion inh: 11.9; MT1-MMP act inh: 0.2; MT1-MMP act inh RFP: -0.1

What do the screens show for `Cc1ccc(NC(=O)C2(S(=O)(=O)c3ccc(C)cc3)CC2)cc1`?
Rce1 inhib: inactive; Yeast UUG start: -1.2; eIF4H inh: -4.3; PABP FP inh: -8.6; MT1-MMP act inh: 3.8; CSC inhib: -8.2; MT1-MMP act inh RFP: -1.0

What do the screens show for `O=C(COC(=O)c1ccc(S(=O)(=O)Nc2ccccc2)cc1)NCCC1=CCCCC1`?
Rce1 inhib: inactive; eIF4H inh: -9.2; PABP FP inh: -7.7; Env fusion inh: 7.5; MT1-MMP act inh: 0.1; CSC inhib: 9.0; MT1-MMP act inh RFP: 1.0

How did CC(NC(=O)c1ccc(S(C)(=O)=O)cc1)c1cccc2ccccc12 (stereo not given) do in these assays?
Rce1 inhib: inactive; Yeast UUG start: -4.4; eIF4H inh: -12.5; PABP FP inh: -1.9; Env fusion inh: -10.3; MT1-MMP act inh: 1.3; CSC inhib: 4.6; MT1-MMP act inh RFP: -1.4

What do the screens show for `CCOC(=O)c1c(NC(=O)N/N=C/c2ccc(O)c(OC)c2)sc(C(C)=O)c1C`?
Rce1 inhib: inactive; eIF4H inh: -5.5; PABP FP inh: 6.5; CSC inhib: -4.0

Results for COc1ccc(C(=O)n2cnc(N)n2)cc1 ?
Rce1 inhib: inactive; Yeast UUG start: -19.6; eIF4H inh: -1.9; PABP FP inh: 6.2; Env fusion inh: 17.9; MT1-MMP act inh: 3.2; CSC inhib: 2.2; MT1-MMP act inh RFP: 1.0

How did COc1ccc(S(=O)(=O)Nc2ccc3ccccc3c2)cc1C do in these assays?
Rce1 inhib: inactive; Yeast UUG start: 7.2; eIF4H inh: -5.3; PABP FP inh: -1.6; Env fusion inh: 31.3; MT1-MMP act inh: -4.6; CSC inhib: 1.8; MT1-MMP act inh RFP: -15.1

What do the screens show for `CC(=O)N1N=C(c2ccccc2)OC1(C)CC(=O)Nc1ccccc1` (stereo not given)?
Rce1 inhib: inactive; Yeast UUG start: 10.1; eIF4H inh: -2.2; PABP FP inh: -7.8; Env fusion inh: 5.0; MT1-MMP act inh: 1.7; CSC inhib: 11.5; MT1-MMP act inh RFP: 2.6

How did Cc1c(NC(=O)/C=C/c2cccs2)c(=O)n(-c2ccccc2)n1C do in these assays?
Rce1 inhib: inactive; Yeast UUG start: -6.8; eIF4H inh: -14.5; PABP FP inh: -1.3; Env fusion inh: 13.8; MT1-MMP act inh: 5.0; CSC inhib: -9.6; MT1-MMP act inh RFP: 7.8

How did N#CC(C(=O)O)=C1CCCC1 do in these assays?
Rce1 inhib: inactive; Yeast UUG start: -16.1; eIF4H inh: 6.9; PABP FP inh: 9.3; MT1-MMP act inh: -1.9; CSC inhib: 12.0; MT1-MMP act inh RFP: -1.9

How did COc1cc(/C=N/NC(=O)c2cnccn2)ccc1O do in these assays?
Rce1 inhib: inactive; Yeast UUG start: -17.1; eIF4H inh: -3.1; PABP FP inh: -9.0; Env fusion inh: -60.1; MT1-MMP act inh: 3.1; CSC inhib: -10.8; MT1-MMP act inh RFP: 2.0

Results for Cc1nc2ccccn2c1C(=O)CSc1ccc(Cl)cc1Cl ?
Rce1 inhib: inactive; Yeast UUG start: -12.2; eIF4H inh: -8.7; PABP FP inh: -7.4; Env fusion inh: 15.5; MT1-MMP act inh: -3.9; CSC inhib: 4.7; MT1-MMP act inh RFP: -9.6

How did N#Cc1ccc2ccn(CC(=O)NC3CCCCC3)c2c1 do in these assays?
Rce1 inhib: inactive; Yeast UUG start: -13.3; eIF4H inh: -4.0; PABP FP inh: -4.9; Env fusion inh: -22.9; MT1-MMP act inh: -0.5; MT1-MMP act inh RFP: 1.2

How did COc1ccccc1-c1nnc(SCC(=O)N2CCOCC2)n1-c1ccccc1 do in these assays?
Rce1 inhib: inactive; Yeast UUG start: 16.5; eIF4H inh: -2.0; PABP FP inh: -4.5; Env fusion inh: -19.0; MT1-MMP act inh: -3.5; CSC inhib: -6.0; MT1-MMP act inh RFP: 1.5

What do the screens show for `c1ccc(CCn2nnnc2C(c2cccs2)N2CCN(Cc3ccc4c(c3)OCO4)CC2)cc1` (stereo not given)?
Rce1 inhib: inactive; Yeast UUG start: -3.5; eIF4H inh: -11.5; PABP FP inh: 9.4; Env fusion inh: 48.5; MT1-MMP act inh: -9.0; CSC inhib: 7.0; MT1-MMP act inh RFP: -13.5

As a short view, some entries already given.
How did COc1ccccc1-c1nnc(SCC(=O)N2CCOCC2)n1-c1ccccc1 do in these assays?
Rce1 inhib: inactive; Yeast UUG start: 16.5; eIF4H inh: -2.0; PABP FP inh: -4.5; Env fusion inh: -19.0; MT1-MMP act inh: -3.5; CSC inhib: -6.0; MT1-MMP act inh RFP: 1.5

What do the screens show for `c1ccc(CCn2nnnc2C(c2cccs2)N2CCN(Cc3ccc4c(c3)OCO4)CC2)cc1` (stereo not given)?
Rce1 inhib: inactive; Yeast UUG start: -3.5; eIF4H inh: -11.5; PABP FP inh: 9.4; Env fusion inh: 48.5; MT1-MMP act inh: -9.0; CSC inhib: 7.0; MT1-MMP act inh RFP: -13.5

Next results follow.
How did Cc1ccnc(N2CCC(C(=O)Nc3ccc4c(c3)OCO4)CC2)n1 do in these assays?
Yeast UUG start: -1.8; eIF4H inh: -7.3; PABP FP inh: -7.7; Env fusion inh: -17.1; MT1-MMP act inh: 2.8; CSC inhib: -6.8; MT1-MMP act inh RFP: 0.3

How did CCC1Nc2ncnc(N3CCN(c4ccccc4)CC3)c2N(Cc2ccc(C)cc2)C1=O (stereo not given) do in these assays?
Rce1 inhib: inactive; Yeast UUG start: -18.6; Env fusion inh: -34.7; MT1-MMP act inh: -6.4; CSC inhib: 8.6; MT1-MMP act inh RFP: -4.7

How did Cn1ccnc1SCC(=O)Nc1cc(S(=O)(=O)N2CCOCC2)ccc1Cl do in these assays?
Rce1 inhib: inactive; eIF4H inh: 6.0; PABP FP inh: 3.3; Env fusion inh: 0.0; MT1-MMP act inh: 0.0; CSC inhib: -3.4; MT1-MMP act inh RFP: 1.2

How did COC(=O)c1ccc2c(C)c(C3(O)CCCCC3)[nH]c2c1 do in these assays?
Yeast UUG start: -12.3; Env fusion inh: -48.5; MT1-MMP act inh: 2.2; CSC inhib: -10.8; MT1-MMP act inh RFP: 0.8

What do the screens show for `OC(c1ccccc1)C(O)C(c1ccccc1)N1CCCCC1` (stereo not given)?
Yeast UUG start: -5.3; Env fusion inh: -14.4; MT1-MMP act inh: -0.3; MT1-MMP act inh RFP: 1.1

How did N#Cc1c(NC(=O)COC(=O)C2CC3C=CC2C3)oc(-c2ccccc2)c1-c1ccccc1 (stereo not given) do in these assays?
Rce1 inhib: inactive; Yeast UUG start: -0.3; eIF4H inh: 9.5; PABP FP inh: 16.6; Env fusion inh: -8.7; MT1-MMP act inh: -2.0; CSC inhib: 28.0; MT1-MMP act inh RFP: -1.3

What do the screens show for `CCSc1cnn(-c2ccccc2)c(=O)c1SCC`?
Rce1 inhib: inactive; Yeast UUG start: -10.9; eIF4H inh: 6.5; PABP FP inh: 5.2; Env fusion inh: -14.2; MT1-MMP act inh: 2.1; CSC inhib: -17.0; MT1-MMP act inh RFP: 1.6

Results for CC(=O)Nc1cc[n+](CC(=O)c2ccc(Cl)cc2)cc1 ?
Rce1 inhib: inactive; Yeast UUG start: -5.0; eIF4H inh: -9.3; PABP FP inh: -4.5; Env fusion inh: 6.7; MT1-MMP act inh: 2.2; CSC inhib: -12.3; MT1-MMP act inh RFP: -5.6

Results for Cc1ccc(NC(=O)CN(C)C(=O)c2ccc(-n3cncn3)c([N+](=O)[O-])c2)cc1 ?
Rce1 inhib: inactive; Env fusion inh: 29.2; MT1-MMP act inh: 0.9; CSC inhib: -11.0; MT1-MMP act inh RFP: -0.3

What do the screens show for `CCn1c(SCc2nc3ccccc3[nH]2)nnc1-c1ccccc1OC`?
Rce1 inhib: inactive; Yeast UUG start: -28.6; eIF4H inh: 4.7; PABP FP inh: -4.4; MT1-MMP act inh: 1.0; CSC inhib: -2.1; MT1-MMP act inh RFP: -5.2

What do the screens show for `CCC(C)NS(=O)(=O)c1ccc(NC(=O)C2CCN(C(=O)c3ccco3)CC2)cc1` (stereo not given)?
Rce1 inhib: inactive; Yeast UUG start: 5.5; eIF4H inh: 3.5; PABP FP inh: 9.3; Env fusion inh: 5.3; MT1-MMP act inh: 3.6; CSC inhib: 6.5; MT1-MMP act inh RFP: -3.6

How did O=C1C(=O)N(CCN2CCOCC2)C(c2ccccn2)/C1=C(/O)c1ccc(F)cc1 (stereo not given) do in these assays?
Rce1 inhib: inactive; Yeast UUG start: -7.8; eIF4H inh: 16.2; PABP FP inh: 30.2; Env fusion inh: -2.9; MT1-MMP act inh: -8.3; MT1-MMP act inh RFP: -4.4

Results for Clc1cccc(OCCOCCN2CCNCC2)c1Cl ?
Rce1 inhib: inactive; Yeast UUG start: -8.3; Env fusion inh: 18.1; MT1-MMP act inh: 0.0; CSC inhib: -1.4; MT1-MMP act inh RFP: 7.1

Results for CN(Cc1ccccc1)C(=O)CCn1c(=O)oc2ccccc21 ?
Rce1 inhib: inactive; Yeast UUG start: -13.7; eIF4H inh: -5.7; PABP FP inh: -2.5; Env fusion inh: 5.1; MT1-MMP act inh: 3.5; CSC inhib: -14.0; MT1-MMP act inh RFP: 2.0

What do the screens show for `Cc1noc(C)c1S(=O)(=O)N1CCCC(C(=O)N2CCC(C)CC2)C1` (stereo not given)?
Rce1 inhib: inactive; Yeast UUG start: -17.9; eIF4H inh: -3.9; PABP FP inh: -8.1; MT1-MMP act inh: -2.0; CSC inhib: 1.3; MT1-MMP act inh RFP: -0.8

What do the screens show for `CCN(CC)c1ccc(N2C(=NC(=O)C3CC3)SC3CS(=O)(=O)CC32)cc1` (stereo not given)?
Rce1 inhib: inactive; Yeast UUG start: -8.5; eIF4H inh: 7.8; PABP FP inh: 6.3; Env fusion inh: -6.7; MT1-MMP act inh: -0.6; CSC inhib: -7.9; MT1-MMP act inh RFP: -0.3

Screens deposited in PubChem BioAssay by several laboratories.
